HPGD block = qHTS Assay for Inhibitors of HPGD (15-Hydroxyprostaglandin Dehydrogenase); 150,000 tested, 4.3% active; Potency, µM, for inactives: top-dose activity change, negative = inhibition, actives largely listed as inhibitors; AID 894, 2007; 15-hydroxyprostaglandin dehydrogenase [NAD(+)] (Homo sapiens), P15428; purified HPGD, NADH fluorescence kinetic, PGE2 substrate; active = well fitted inhibition curve with a large enough effect (not every such curve was filed as active); inconclusive = small, poorly fitted or top-dose-only effect, or another doubt; inactive = no such curve, though single readings can be large or run the other way;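 further: top concentration of the series not given in the record; plate controls included wells without enzyme; inactives centre near -10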
Target sequence (P15428 whole entry, looked up): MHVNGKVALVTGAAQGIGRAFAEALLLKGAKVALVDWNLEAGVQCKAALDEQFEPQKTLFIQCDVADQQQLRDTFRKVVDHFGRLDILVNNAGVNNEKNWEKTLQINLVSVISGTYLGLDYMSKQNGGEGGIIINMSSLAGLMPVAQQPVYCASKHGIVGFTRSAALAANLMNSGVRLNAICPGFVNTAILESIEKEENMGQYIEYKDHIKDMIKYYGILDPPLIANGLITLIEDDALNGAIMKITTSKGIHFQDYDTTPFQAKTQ
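NADH formation kinetics: reaction with 30 uM PGE2 and 1 mM NAD+ (final), 20 nM enzyme, Tris-HCl pH 8 with Tween 20, after 15 min compound preincubation at room temperature. Fluorescence change, last versus first of five reads.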
* = called active by the depositor; ? = inconclusive. On the % scale 0 is the no-effect control and ±100 the full control effect; potency means the concentration at half of the fitted maximal effect. Only part of the results is shown, so the mix of outcomes need not match the whole.

SMILES	HPGD block
COc1ccc(N2C(=O)C3CCCN3C2c2cc(OC)c(OC)c(OC)c2)cc1 (configuration not stated)	-23.9%
CCC(C)NC(=O)CSC1=Nc2ccccc2C2=NC(CC(=O)NCc3ccccc3)C(=O)N12 (configuration not stated)	?
CCCOc1ccc(N2C(=O)CC(NNC(=O)c3ccc(COc4ccccc4)o3)C2=O)cc1 (configuration not stated)	-15.0%
CCn1c(Cc2ccccc2)nnc1SCC(=O)Nc1nnc(-c2ccccc2)s1	-5.4%
COc1ccc(-c2[nH]nc3c2C(c2ccc(OC(=O)N4CCOCC4)cc2)C(C#N)=C(N)O3)cc1 (configuration not stated)	-5.2%
O=C1c2c(O)ccc([N+](=O)[O-])c2C(=O)c2c([N+](=O)[O-])ccc(O)c21	?
O=C(O)CSc1nnc(-c2ccncc2)n1Cc1ccccc1	-1.4%
CC(C)=CCC/C(C)=C/CC/C(C)=C/CSc1ccccc1C(=O)O	-21.9%
CCc1cccc(CC)c1NC(=O)COC(=O)c1ccc(F)c(S(=O)(=O)N(CC)CC)c1	-10.2%
C/C(=N\NC(=O)c1ccccc1O)c1ccc(Br)s1	31.6µM*
Cc1ccc(NC(=O)C(NC2CCCc3ccccc32)c2ccccc2)c([N+](=O)[O-])c1 (configuration not stated)	-3.1%
CCCC(=O)C1=C(O)C(C(=O)OC)C(C)(C)CC1=N (configuration not stated)	-2.8%
Cc1cc(N/C=C\c2nnnn2-c2ccccc2)no1	-12.4%
O=c1[nH]c2cc3c(cc2cc1CN(Cc1nnnn1CC1CCCO1)C1CCCC1)OCO3 (configuration not stated)	?
N[C@@H](CO)C(=O)NNCc1ccc(O)c(O)c1O	-2.2%
O=S(=O)(c1ccc2nc(-c3ccco3)c(-c3ccco3)nc2c1)N1CCOCC1	?
COc1ccc(C(=O)NC(=S)NCCO)cc1Br	-14.7%
C=CCOC(=O)CCC(=O)Nc1cc(OC)nc(OC)n1	-6.1%
Cc1ccc(NC(=O)CCC(=O)NNC(=O)COc2ccccc2)cc1C	-12.4%
N#Cc1c(N)n(CCCN2CCOCC2)c2nc3ccccc3nc12	?

The listing continues:
SMILES	HPGD block
Cc1cc(C)nc(SCc2ccc3nonc3c2)n1	-15.6%
CCCCCCCCCCCCCCC(F)C(=O)O (configuration not stated)	-5.5%
Cc1ccc(C)c(N2CCN(C(=O)c3ccc4nc(-c5ccco5)c(-c5ccco5)nc4c3)CC2)c1	?
CN1C(=O)C(CC(=O)Nc2ccc(F)cc2)N(CCCc2ccccc2)C1=S (configuration not stated)	-8.1%
O=C(NC1CCCCC1)NC1(C(=O)NCCCN2CCOCC2)CCCCC1	-3.8%
COc1nc(OC)nc(N2CCCCCC2)n1	4.6%
COc1cc2oc(=O)c(Br)c(C)c2c(OC)c1OC	-13.0%
COc1ccccc1N1CC(O)=C(c2nc3ccccc3s2)C1=N	?
O=C(Nc1nc(-c2ccccc2)cs1)C1CCCO1 (configuration not stated)	-18.4%
Cc1cc(Nc2ccc3c(c2)OCCO3)n2ncnc2n1	-8.9%
Cn1c(SCC(=O)NCc2cccs2)nnc1-c1ccco1	-2.2%
O=C(NCc1nnc(SCc2ccc(C(F)(F)F)cc2)n1-c1ccccc1)C12CC3CC(CC(C3)C1)C2	-5.1%
CC1CC(=O)C2=C(C1)Nc1ccccc1N(C(=O)COc1ccccc1)C2c1ccco1 (configuration not stated)	-0.8%
O=c1[nH]c(CN2CCN(Cc3ccc4c(c3)OCO4)CC2)nc2sc3c(c12)CCC3	-18.0%
Cc1sc2nc(Cc3ccccc3)[nH]c(=O)c2c1-c1ccccc1	-0.2%
Cc1ccc(NC2=C/C(=N\S(=O)(=O)c3cccs3)c3ccccc3C2=O)c(C)c1	-11.7%
COc1ccc(C2CC(c3ccccc3)=NN2C(=O)CSc2ncccn2)cc1 (configuration not stated)	?
COc1ccc(/C(C)=N/Nc2ccc(C(=O)O)cc2)cc1OC	?
CCN1C(=O)NC(c2cccnc2)C(C(=O)OC)=C1C (configuration not stated)	-2.8%
O=C(c1ccco1)N1CCN(C(=O)C2c3ccccc3Oc3ccccc32)CC1	-25.3%

3 entries from above, sorted by the number in HPGD block, smallest number first:
SMILES	HPGD block
COc1cc2oc(=O)c(Br)c(C)c2c(OC)c1OC	-13.0%
CCCC(=O)C1=C(O)C(C(=O)OC)C(C)(C)CC1=N (configuration not stated)	-2.8%
O=C(O)CSc1nnc(-c2ccncc2)n1Cc1ccccc1	-1.4%

Structures listed so far that bear a hit mark in HPGD block.
SMILES	HPGD block
C/C(=N\NC(=O)c1ccccc1O)c1ccc(Br)s1	31.6µM*

(more compounds)
SMILES	HPGD block
Cc1cc(NC(=O)CSc2nc(-c3ccc(Cl)cc3)cs2)no1	-14.1%
CCCCCCn1c(SCC(=O)OC)nc2c1c(=O)[nH]c(=O)n2C	7.94µM*
O=C(CN1CCN(c2ccc(F)cc2)CC1)Nc1cc(C(F)(F)F)ccc1Cl	-6.2%
CCn1cc(C(=O)OCC(=O)NCc2ccc3c(c2)OCO3)c(=O)c2ccc(C)nc21	-18.4%
COc1cc(-c2nc3ccc4ccccc4c3c3c2CCC3)ccc1O	-16.6%
CC1=CC(C)=Nc2ccccc2N1	-15.2%
O=C(c1ccc(F)cc1F)N1CCN(c2ncccn2)CC1	-12.9%
OCCSc1nc2ccccc2n1CCOc1ccccc1	-11.9%
COc1cc(C2NC(=O)NC(c3ccccc3)=C2C(C)=O)ccc1OCC(=O)O (configuration not stated)	1.1%
O=c1nc(-c2ccccc2)n(-c2ccc(Cl)cc2)[nH]1	-14.1%
CCOC(=O)c1sc2nc[nH]c(=O)c2c1C	-24.2%
Cc1cc(Cc2cc(C)c(N)cc2N)c(N)cc1N	-18.6%
Cc1ccc(-c2nc3ncccc3o2)cc1NC(=O)c1cc2ccccc2o1	?
N[C@@H](CSCc1ccccc1)C(=O)O	-0.8%
COc1ccccc1NS(=O)(=O)c1ccc(C)c(NC(=O)NC2CCCCC2)c1	-12.1%
O=Cc1ccc(OC2OCCOC2Oc2ccc(C=O)cc2)cc1 (configuration not stated)	-7.9%
COc1cccc(Nc2nc(-c3sc(N)nc3C)cs2)c1	-12.4%
Cc1nnc(SCCn2c(N3CCCCCC3)nc3c2c(=O)[nH]c(=O)n3C)s1	-5.6%
CC(C)(C)C(=O)c1cn(CC(=O)NCc2ccc3c(c2)OCO3)c2ccccc12	-7.8%
COC(=O)C1=C(C(=O)OC)[C@@H]2N(Cc3ccccc3)c3ccccc3[C@@]23C[C@@H](C(=O)OC)N(S(=O)(=O)c2ccc(OC)cc2)C3=N1	2.4%

Remaining list, next part
SMILES	HPGD block
CCN(c1ccccc1)S(=O)(=O)c1ccc(NC(=O)C(C)(C)C)cc1	-4.5%
COc1ccc(C)cc1NC(=O)C1C2C=CC(C2)C1C(=O)O (configuration not stated)	-2.6%
CCN(CC)CCCCn1c(-c2ccccc2)nc2c(N(CCOC)CCOC)nc(C)nc21	?
COc1ccc(CN(CCN2CCOCC2)C(=O)c2c(F)cccc2F)cc1OC	-11.7%
Cc1ccccc1NC(=O)COc1nsnc1N1CCOCC1	-14.3%
CCN(CC)c1ccc(C2C3CCCCC3(O)CCN2C(=O)c2cccs2)cc1 (configuration not stated)	-0.2%
CCOC(=O)c1ccc(CNS(=O)(=O)c2c(C)ccc3nsnc23)o1	3.2%
N#C/C(=C/c1ccc(Oc2ccc([N+](=O)[O-])cn2)cc1)C(=O)N1CCOCC1	-8.2%
Cc1ccc(C(=O)CCNc2cccc(Br)c2)o1	-12.1%
CCN1CCN(C(=O)c2ccc3c(c2)N(Cc2ccc(F)cc2)C(=O)c2ccccc2S3=O)CC1 (configuration not stated)	-6.2%
CN(N)C(=S)NCc1ccccc1	-4.7%
Cc1oc2c(CN(C)C)c(O)ccc2c(=O)c1-c1cscn1	?
O=C(c1ccccc1)N1CCCCC(S(=O)(=O)c2ccc3ccccc3c2)C1=O (configuration not stated)	-5.4%
CCCSc1nnc2nc3c(nn12)c1ccccc1n3C	-10.4%
CSC1=NCCN1C(=O)c1ccco1	-15.8%
O=C(c1cccs1)N1CCN(c2ncccn2)CC1	-15.8%
Cc1ccc(N(C(=O)c2csnn2)C(C(=O)NC(C)(C)C)c2cccs2)cc1 (configuration not stated)	-11.1%
CNC(=S)N/N=C/c1cn(Cc2ccc(F)cc2)c2ccccc12	-14.6%
CCCn1c(SCC(=O)c2cc(C)c(C)cc2C)n[nH]c1=O	-11.8%
CN1CCN(C/C(=C2/N=C(c3ccccc3)OC2=O)N(C)C)CC1	-17.7%

The listing continues.
| SMILES | HPGD block |
| --- | --- |
| COCC(O)CSc1c([N+](=O)[O-])nc(C)n1Cc1ccc(OC)c([N+](=O)[O-])c1 (configuration not stated) | -4.4% |
| CCN1CCCC1CNC(=O)c1cn(C)c2ccc(S(=O)(=O)N3CCCCCC3)cc2c1=O (configuration not stated) | -4.8% |
| CCN(CC)c1ccc(C=C(c2nnnn2-c2ccc(C)cc2)c2nnnn2-c2ccc(C)cc2)cc1 | -7.4% |
| COc1ccc(C2N(c3cc(C)on3)C(=O)C3CCCN32)cc1OC (configuration not stated) | -4.9% |
| C=CCOC(=O)C1=C(C)OC(N)=C(C#N)C1c1c(C)nn(-c2ccccc2)c1Cl (configuration not stated) | -16.9% |
| CCOC(=O)C(NC(=O)c1ccccc1)(Nc1cc(C)on1)C(F)(F)F (configuration not stated) | -12.9% |
| O=C(c1ccc(CS(=O)(=O)Cc2ccc(Cl)cc2)o1)N1CCCC1 | -5.0% |
| NC(=O)COC(=O)CNC(=O)c1ccc(Cl)cc1 | 0.2% |
| COc1cc(C(Nc2ccc3c(c2)OCO3)C(=O)NC2CCCCC2)cc(OC)c1OC (configuration not stated) | -29.1% |
| Cc1cc(C)c2c(N)c(C(=O)NN3CC(=O)N(c4ccccc4F)CC3=O)sc2n1 | ? |
| CC(C)n1c(SCc2cc(=O)[nH]c3ccccc23)nc2c1c(=O)n(C)c(=O)n2C | -2.2% |
| C=CCN1CCc2c(cc(O)c(O)c2Cl)C(c2cccc(C)c2)C1 (configuration not stated) | -9.8% |
| COC(=O)C1C(=O)NC(SC)=C(C#N)C1c1ccccc1F (configuration not stated) | -3.7% |
| Cc1ccccc1N1CCN(Cc2c(C#N)c3ccccc3n2C)CC1 | -5.6% |
| CCOC(=O)N1CCC(NC(=O)C2CCCN(S(=O)(=O)c3cccc4nsnc34)C2)CC1 (configuration not stated) | -8.7% |
| O=C1c2[nH]nc(-c3ccccc3O)c2C(c2ccccc2F)N1Cc1ccco1 (configuration not stated) | -17.0% |
| O=[N+]([O-])c1ccc(N2CCCCCC2)c([N+](=O)[O-])c1 | -13.7% |
| CCNc1nc(NCc2ccccc2)nc(Oc2ccc(=O)[nH]n2)n1 | -11.8% |
| O=C(CN1CCN(C(=O)c2ccco2)CC1)Nc1cc(Cl)ccc1Cl | -7.7% |
| Cc1ccc(S(=O)(=O)N(C)Cc2nc(-c3ccc(Br)cc3)no2)cc1 | -9.9% |

Ordered by length of the SMILES (low to high): 6 of the compounds above.
| SMILES | HPGD block |
| --- | --- |
| OCCSc1nc2ccccc2n1CCOc1ccccc1 | -11.9% |
| C/C(=N\NC(=O)c1ccccc1O)c1ccc(Br)s1 | 31.6µM* |
| CCCCCCn1c(SCC(=O)OC)nc2c1c(=O)[nH]c(=O)n2C | 7.94µM* |
| CN1C(=O)C(CC(=O)Nc2ccc(F)cc2)N(CCCc2ccccc2)C1=S (configuration not stated) | -8.1% |
| CC(C)n1c(SCc2cc(=O)[nH]c3ccccc23)nc2c1c(=O)n(C)c(=O)n2C | -2.2% |
| COc1ccc(-c2[nH]nc3c2C(c2ccc(OC(=O)N4CCOCC4)cc2)C(C#N)=C(N)O3)cc1 (configuration not stated) | -5.2% |

(continued)
| SMILES | HPGD block |
| --- | --- |
| COc1cc(NS(=O)(=O)c2ccc(C)c(C)c2)c(OC)cc1Cl | -10.2% |
| C/C(CC1(O)C(=O)Nc2ccccc21)=N\O (configuration not stated) | -0.4% |
| CCN(CC)CC(=O)Nc1ccc(-c2nc3cc(NC(=O)CN(CC)CC)ccc3o2)cc1 | ? |
| CC1(C)Cc2c(C#N)c(N3CCN(C(=O)c4ccccc4)CC3)nc(Cc3ccccc3)c2CO1 | ? |
| COc1ccc2c(c1)cc(C)c1nnc(SCC(=O)N(C)c3nc(-c4ccccc4)cs3)n12 | -8.6% |
| c1ccc(C2CC(c3ccccc3)n3ncnc3N2)cc1 (configuration not stated) | -2.7% |
| CN(C)CCOC(=O)CCc1ccccc1 | -1.1% |
| O=[N+]([O-])c1ccc(N/N=C2/CCCCC2c2ccccn2)cc1 (configuration not stated) | -13.7% |
| c1ccc2c(c1)C(=Nn1cnnc1)c1ccccc1-2 | 0.7% |
| O=C(NCCCNc1ccc([N+](=O)[O-])cc1)C(F)(F)F | 20µM* |
| Cc1onc(-c2c(F)cccc2Cl)c1C(=O)NC(=S)NC1CCS(=O)(=O)C1 (configuration not stated) | 1.1% |
| Cc1cccc(C(=O)n2c(=S)nc3ccccn32)c1 | 22.4µM* |
| CCN(CC)S(=O)(=O)c1ccc(N=Nc2c(C)[nH]n(C(N)=S)c2=O)cc1 | 35.5µM* |
| Cc1nnc(NC(=O)CCCN2C(=O)c3ccccc3C2=O)s1 | -0.5% |
| CS(=O)(=O)N(CC(=O)NCc1ccco1)c1ccc2c(c1)OCO2 | -4.2% |
| O=C(CSc1ccccc1)Nc1nnc(COc2ccc(Cl)cc2)s1 | 3.55µM* |
| COC(=O)c1ccccc1CON1C(=O)C(C)(C)N(OCc2ccccc2C(=O)OC)C(=O)C1(C)C | -9.9% |
| COc1ccc2[nH]c3c(c2c1)CCNC3=O | ? |
| CC(C)C(=O)Nc1cccc(C(=O)Nc2nncs2)c1 | -1.3% |
| CCNC(=O)CC1C(=O)N(c2ccccc2)C(=O)N1CCC(C)C (configuration not stated) | -14.3% |
| Cc1ccc(Oc2nccc(-c3ccc(Cl)cc3)n2)cc1 | -1.3% |
